OX1R antag: antagonists of human orexin 1 receptor (OX1R) | Orexin/Hypocretin receptor type 1 (Homo sapiens), O43613 | OX1R-expressing cells, FRET antagonist read-out | inhibition, % at 6.6 µM | actives 1.8% (n = 330,000) | AID 485270, 2010; in the data active = inhibition mostly above about 38%, no sharp cut-off; inactive = mostly below about 40%;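 note: 0% = agonist challenge alone and 100% = reference antagonist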
Target sequence (O43613 whole entry, looked up): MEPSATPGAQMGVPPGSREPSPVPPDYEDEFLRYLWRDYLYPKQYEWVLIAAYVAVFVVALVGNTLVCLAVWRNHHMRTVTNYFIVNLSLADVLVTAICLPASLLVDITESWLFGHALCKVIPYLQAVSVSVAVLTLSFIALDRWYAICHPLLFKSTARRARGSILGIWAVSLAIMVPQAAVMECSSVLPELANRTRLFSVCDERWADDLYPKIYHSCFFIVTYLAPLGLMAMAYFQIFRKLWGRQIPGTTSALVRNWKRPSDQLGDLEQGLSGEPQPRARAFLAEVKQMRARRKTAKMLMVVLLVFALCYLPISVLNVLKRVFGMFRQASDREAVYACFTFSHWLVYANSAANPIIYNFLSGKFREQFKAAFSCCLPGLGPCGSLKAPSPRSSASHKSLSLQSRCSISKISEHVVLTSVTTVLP
STK33 kinase inh: inhibitors of purified STK33 kinase, primary screen, biochemical, ADP-Glo luminescence, homogeneous, cell-free | Serine/threonine-protein kinase 33 (Homo sapiens), Q9BYT3 | inhibition, % at 10 µM | MBP phosphorylation | AID 2661, 2010 | actives 0.073% (n = 320,000);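 active = inhibition at or above 25%, using the most active replicate where run in duplicate; inactive = inhibition below 25%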
Target sequence (Q9BYT3 whole entry, looked up): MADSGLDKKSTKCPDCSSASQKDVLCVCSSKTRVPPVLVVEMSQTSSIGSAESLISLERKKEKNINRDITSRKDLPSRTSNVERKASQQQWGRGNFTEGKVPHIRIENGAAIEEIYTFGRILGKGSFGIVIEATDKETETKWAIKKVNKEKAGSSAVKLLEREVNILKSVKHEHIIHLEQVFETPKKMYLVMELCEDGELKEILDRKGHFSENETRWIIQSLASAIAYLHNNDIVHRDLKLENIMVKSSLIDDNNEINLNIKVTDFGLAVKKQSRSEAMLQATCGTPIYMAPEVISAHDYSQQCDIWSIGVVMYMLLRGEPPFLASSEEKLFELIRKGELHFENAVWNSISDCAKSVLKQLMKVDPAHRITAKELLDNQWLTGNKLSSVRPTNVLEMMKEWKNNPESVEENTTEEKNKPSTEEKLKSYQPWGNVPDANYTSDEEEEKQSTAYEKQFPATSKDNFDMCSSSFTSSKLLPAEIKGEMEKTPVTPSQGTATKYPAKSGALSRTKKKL
Active calls of the source: *; . = no result given; & = joins results of further samples. Some of the compounds tested, and most or all hits are left out here.

SMILES	OX1R antag	STK33 kinase inh
O=C1C=C(Nc2cccc(O)c2)CC(c2ccco2)C1 (stereo not given)	13	-1.9
O=C(COC(=O)CCC(=O)c1ccc(F)cc1)NCc1ccco1	6	-2.1
CN(C)C(=S)Nc1cccc(-c2n[nH]c(=S)o2)c1	0	-0.2
Cn1c(=N)n(CC(=O)c2ccc(F)cc2)c2ccccc21	-6	0.5
CC1CCN(CCc2nc3cc(NC(=O)NC4CCCCC4)ccc3n2C)CC1	11	-0.7
Cc1cc(C)c(S(=O)(=O)c2cccc(C(F)(F)F)c2)c(=O)[nH]1	2	0.3
Cc1ccc2sc(=O)[nH]c2c1	-6	0.0
COc1ccc(Cl)cc1Nc1cc(C)nc2ccccc12	16	-0.7
CC/C(=N\NC(=O)c1nnn(-c2nonc2N)c1-c1cccc(OC)c1)c1ccc(C)cc1	22	-0.3
CCN1CCN(CCCNC(=O)C2CCCN(c3nc4c(C)cc(C)cc4s3)C2)CC1 (stereo not given)	10	-1.4
O=C(Oc1cccccc1=O)c1ccccc1	15	-0.8
O=C(CCCC(=O)OCC(=O)c1ccc(F)cc1)Nc1cc(C(F)(F)F)ccc1Cl	11	-1.2
COCCNC(=O)NC(=O)CN1CCCc2ccccc21	9	-0.7
CC(C)CN(CC(C)C)C(=O)CC(=O)NC(=O)c1ccc(Cl)cc1	12	-2.8
COc1cc(CNCc2ccc(Br)cc2)cc(OC)c1	4	-0.8

An excerpt of these results, with values ahead of the structure.
OX1R antag	STK33 kinase inh	structure
11	-0.7	CC1CCN(CCc2nc3cc(NC(=O)NC4CCCCC4)ccc3n2C)CC1
11	-1.2	O=C(CCCC(=O)OCC(=O)c1ccc(F)cc1)Nc1cc(C(F)(F)F)ccc1Cl
4	-0.8	COc1cc(CNCc2ccc(Br)cc2)cc(OC)c1
2	0.3	Cc1cc(C)c(S(=O)(=O)c2cccc(C(F)(F)F)c2)c(=O)[nH]1

The results go on:
SMILES	OX1R antag	STK33 kinase inh
Cc1cc(C)cc(NC(=O)[C@H](Cc2c[nH]c3ccccc23)NC(=O)[C@@H]2Cc3ccccc3CN2)c1	17	0.2
COc1cccc(C(=O)Nc2nc3c(s2)CN(C)CC3)c1	17	0.6
CC(C)(C)OC(=O)NCCc1nnc(SCc2ccc(Cl)cc2)o1	7	-0.2
Cc1ccc(N2CC(C(=O)Nc3c4c(nn3C(C)(C)C)CS(=O)(=O)C4)CC2=O)cc1 (stereo not given)	24	-0.6
Cc1cc(Cl)ccc1NNC(N)=S	3	-1.9
CCc1cc2c(SCC(=O)c3ccc(Cl)s3)ncnc2s1	20	-0.4
O=[N+]([O-])c1cccc(C(=NCc2ccccc2)NO)c1	.	-0.3
COc1ccc(C(O)(c2ccccc2OC)C(CN2CCOCC2)c2ccccc2)cc1 (stereo not given)	21	-0.1
CCCCCCn1c(COc2ccccc2F)nnc1SCC(=O)c1c(N)n(C)c(=O)n(C)c1=O	13	-1.9
O=C(NCCN1C(=O)C2C3C=CC(C3)C2C1=O)Nc1ccc(Br)cc1 (stereo not given)	14	-0.4
COc1ccc(OC)c(N(CC(=O)Nc2cccnc2)S(=O)(=O)c2ccccc2)c1	18	-0.8
CCCc1cc(=O)oc2cc(C)cc(OCC(=O)NCc3ccncc3)c12	27	2.0
O=Cc1c[nH]c2ncccc12	4	3.3
Cn1cccc1C(=O)Nc1nc(-c2ccccn2)cs1	19	2.4
COc1ccccc1OC(=O)CCN1c2ccccc2Sc2ccccc21	24	0.0

Filtered by structure: those above containing a tert-butyl group (2)
SMILES	OX1R antag	STK33 kinase inh
CC(C)(C)OC(=O)NCCc1nnc(SCc2ccc(Cl)cc2)o1	7	-0.2
Cc1ccc(N2CC(C(=O)Nc3c4c(nn3C(C)(C)C)CS(=O)(=O)C4)CC2=O)cc1 (stereo not given)	24	-0.6

(cont.)
SMILES	OX1R antag	STK33 kinase inh
O=C(CS(=O)(=O)c1ccccc1)Nc1nc(-c2ccccc2)cs1	47	0.8
COc1ccc(CNC(=O)[C@H](C)NC(=O)C2CCN(C(=O)[C@@H](N)Cc3ccccc3)CC2)cc1	8	-1.5
COc1ccc(/C=C(\NC(=O)c2ccc([N+](=O)[O-])cc2)C(=O)N2CCOCC2)cc1	20	-0.8
COc1cccc(CN(C)C(=O)c2ccc3c(=O)n4c(nc3c2)CCC4)c1	13	-0.6
O=S(=O)(c1ccc(Cl)s1)N1CCN(Cc2ccccc2)CC1	21	-1.2
Cc1cccc(C(=O)O/N=C(\N)c2ccc(Br)cc2)c1	8	-1.4
COc1ccc(CCC(=O)N(C)CC(=O)Nc2ccc(N3CCOCC3)cc2)cc1	16	0.9
CC(C)=C1SC(N2CCN(c3cccc(C(F)(F)F)c3)CC2)=NC1=O	8	-0.7
CC(C)c1onc(C(=O)N2C(C)CCCC2C)c1[N+](=O)[O-] (stereo not given)	22	-0.1
CC(=O)c1ccc(NS(=O)(=O)Cc2ccc(Cl)cc2)cc1	12	18
CCOC(=O)CSc1nc2c(sc(=S)n2Cc2ccco2)c(=O)n1-c1ccc(F)cc1	14	-0.8
COc1ccc(Cn2nnnc2CN(Cc2cc3cc(C)ccc3[nH]c2=O)C2CCCC2)cc1	6	2.0
O=C(Nc1nc(-c2ccco2)c(-c2ccco2)s1)c1cnccn1	14	-1.6
COc1cccc(NC(=O)C2C3C=CC4(O3)C2C(=O)N(CCCN2CCC(C)CC2)C4C(=O)NC2CCCCC2)c1 (stereo not given)	16	-2.3
O=C(CN1CCCCCC1)Nc1cccc(NC(=O)CN2CCCCCC2)c1	6	-0.6
C=CCn1c(C)cc(C(=O)CSc2nc(N)cc(N)n2)c1C	5	-0.7
COCc1[nH]nc2c1C(c1ccc(OC)cc1)C(C#N)=C(N)O2 (stereo not given)	9	-0.6
CCN1CCN(c2cc(-c3ccccc3)nc3cc(-c4cccc(F)c4)nn23)CC1	16	-0.7
N#Cc1c(NC(=S)NC(=O)c2ccccc2)sc2c1CCN(CCc1ccccc1)C2	26	0.2
N#Cc1nc(-c2ccco2)oc1N1CCN(c2cccc(Cl)c2)CC1	6	-1.7
CC(Sc1ccccc1)C(=O)Nc1ccccc1C(=O)N1CCOCC1 (stereo not given)	10	-1.1
O=C(COC(=O)c1ccccc1)NCCC1=CCCCC1	5	0.4
CCOc1ccc(/C=C/C(=O)N2CCOCC2)cc1OC	21	7.4
COc1ccc(N2CCN(C(=O)Cc3csc(NC(=O)Nc4ccccc4OC)n3)CC2)cc1	4	-0.4
CCOCCCNC(=O)C1CCN(S(=O)(=O)c2ccc(C)cc2)CC1	6	-1.5
Cc1ccc(NC(=O)COC(=O)CNC(=O)c2ccco2)cc1	10	1.6
CN1CCc2nc(NC(=O)COc3ccc(C#N)cc3)sc2C1	26	-0.9
COc1ccc(N2CCN(C(CNC(=O)c3cccs3)c3ccco3)CC2)cc1 (stereo not given)	9	.
O=C1NC[C@H](Cc2ccccc2)N(CCc2cccc(F)c2)C1=O	27	1.4
CSc1ccc(-c2cc(=O)c3ccccc3o2)cc1	68*	1.6

Whole records as entered above.
Cn1cccc1C(=O)Nc1nc(-c2ccccn2)cs1 is listed as OX1R antag = 19; STK33 kinase inh = 2.4
COc1ccccc1OC(=O)CCN1c2ccccc2Sc2ccccc21 is listed as OX1R antag = 24; STK33 kinase inh = 0.0

Remaining list, next part.
SMILES	OX1R antag	STK33 kinase inh
CCOC(=O)NC1(Nc2ccc(C)cc2)Oc2ccccc2O1	8	-0.6
CC(=O)c1cc(-c2ccc(F)cc2)n(CCC(=O)Nc2cccnc2)c1C	5	-0.6
CCOC(=O)c1sc(NC(=O)CSc2nnc(-c3ccco3)n2CC)c(C(=O)OCC)c1C	15	-1.7
CC(=O)NC1CCCN(O)C(=O)/C=C(\C)CCOC(=O)C(NC(C)=O)CCCN(O)C(=O)/C=C(\C)CCOC(=O)C(NC(C)=O)CCCN(O)C(=O)/C=C(\C)CCOC1=O (stereo not given)	2	-1.2
COc1ccc(NC(=O)CN2CCN(CC(=O)Nc3ccccc3Cl)CC2)cc1Cl	20	0.0
CCOC(=O)CC1C(=O)NCCN1S(=O)(=O)c1ccc(Cl)c(Cl)c1 (stereo not given)	8	-2.2
Cc1ccc(C(=O)n2c(-c3ccccc3)cnc2SCC(=O)Nc2ccc(C)cc2C)cc1	20	-0.7
CCOCCCNC(=O)C1CCN(S(=O)(=O)N2CC(C)CC(C)C2)CC1 (stereo not given)	10	-2.1
CCC(Sc1nc2n[nH]c(C)c2c(=N)n1-c1cc(Cl)ccc1C)C(=O)N1CCOCC1 (stereo not given)	16	0.2
COc1ccc2c(c1)c(-c1csc(N)n1)c(C)n2C	46*	0.0
Fc1ccc(N2CCN(c3nc(-c4ccco4)cc(C(F)(F)F)n3)CC2)cc1	15	-0.5
COc1cccc(CNC(=O)[C@H](CC(C)C)NC(=O)N2CCn3c2nc2ccccc23)c1	-1	0.0
CC(=O)c1ccc(NC(=O)c2ccc(CNc3c(N4CCCC4)c(=O)c3=O)cc2)cc1	23	-2.3
CS(=O)(=O)NCCC1=CCCCC1	9	-0.8
CC(=O)NC(c1cccs1)c1cc([N+](=O)[O-])c2cccnc2c1O (stereo not given)	43	-1.9

OX1R antag, hit marks shown above
SMILES	OX1R antag	STK33 kinase inh
CSc1ccc(-c2cc(=O)c3ccccc3o2)cc1	68*	1.6
COc1ccc2c(c1)c(-c1csc(N)n1)c(C)n2C	46*	0.0

The list continues:
SMILES	OX1R antag	STK33 kinase inh
COc1ccc(/C=C/c2nnc(NC(C)=O)s2)cc1	22	-1.2
COc1ccc2c(c1OC)C(=O)N(c1ccc(O)cc1)C2	4	0.9
FC(F)(F)C1CC(c2cccs2)Nc2ncnn21 (stereo not given)	3	-1.0
O=Cc1ccc(Oc2cccc(C(F)(F)F)c2)nc1	2	-0.2
COc1ccc(OC)c(NC(=O)CCCNC(=O)Cn2cnc3sc(C)c(C)c3c2=O)c1	38	1.0
CS(=O)(=O)N(CC(N)=O)c1ccc2c(c1)OCO2	16	-0.3
CCOc1cc(/C=C(\C#N)C(N)=O)ccc1OS(=O)(=O)c1ccccc1	8	4.3
CC(O)Cc1nsc(NC(=O)c2ccc(Br)o2)n1 (stereo not given)	10	-1.0
S=C(NCCN1CCOCC1)Nc1cccc(Cl)c1	10	-0.9
CCN1CCN(CC(=O)Nc2cc(C)on2)CC1	24	-0.7
Cc1cc(=O)oc2cc(OCC(=O)N3CCN(C(=O)c4ccco4)CC3)ccc12	5	-0.9
O=C(NCc1csc(-c2cccs2)n1)Nc1ccc(F)cc1F	17	-0.6
Cc1ccc(NS(=O)(=O)c2ccc(OCC(=O)NCc3ccncc3)cc2)cc1	23	-1.0
COc1ccc([N+](=O)[O-])cc1NC(=O)C(C)OC(=O)c1ccccc1C(=O)c1ccc(Cl)cc1 (stereo not given)	34	-0.4
COc1ccc(OC)c2sc(NC(=O)C3CC3)nc12	7	-1.9
COc1ccccc1NC(=S)N(CCN1CCCCCC1)Cc1cccs1	-5	-2.7
COc1cccc(C2CC(c3ccccc3Cl)n3nnnc3N2)c1 (stereo not given)	20	-0.9
CC(CCc1ccccc1)NC(=O)c1cncc(Br)c1 (stereo not given)	-4	0.3
COc1cc(C(=O)NCc2nnc(SCC(=O)Nc3nc4ccc(C)cc4s3)o2)cc(OC)c1OC	2	-0.9
CCOc1ccccc1N(CC(=O)Nc1c(C)n(C)n(-c2ccccc2)c1=O)S(=O)(=O)c1ccccc1	57*	-0.1
Cc1cccc(N(CC(=O)NCc2ccc(F)cc2)C(=O)c2csnn2)c1C	8	-1.3
COc1ccc(-c2c(C)nc3c(-c4ccccn4)cnn3c2N)cc1	.	-1.3
Cc1cc(=O)n2c3ccccc3n(CC(O)CN3CCN(Cc4ccccc4)CC3)c2c1C#N (stereo not given)	6	0.9
CCc1nc(N2CCN(C(C)=O)CC2)c2c3c(sc2n1)CCCC3	.	-0.9
Cc1c(C(=O)Nc2cc(S(=O)(=O)N3CCOCC3)ccc2N2CCOCC2)oc2ccccc12	46	-0.8
N=C1C(c2ccccc2)=C(O)CN1c1ccccc1N1CCOCC1	2	0.2
c1cnc2ccc3ncccc3c2c1	13	11
CC(=O)Nc1cccc(Oc2cc(C#N)c(C#N)cc2N2CCCCCC2)c1	13	0.6
CSC1=N/C(=C\c2c(F)cccc2Cl)C(=O)S1	21	0.4
Cc1cc(F)ccc1NC(=O)Nc1ccc2c(c1)OCO2	-7	0.1
O=S(=O)(N1CCCCC1)N1CCCN(S(=O)(=O)N2CCCCC2)CC1	13	-0.2
O=C1CNC(=O)N1Cc1ccc(Br)cc1	18	-0.8
COc1ccc(C2=C(CN(C)C)C(c3ccccc3)c3ccccc3O2)cc1 (stereo not given)	-8&12	-2.6&0.2
Cc1nc(NCC2CCCO2)c2nnn(Cc3ccccc3)c2n1 (stereo not given)	3	-1.9
Cn1c(=O)n(Cc2ccccc2Br)c2ccccc21	33	-0.8
Cc1ccccc1NC(=O)c1nc[nH]c1C(=O)NCc1ccccc1	16	0.1
O=C(Cc1ccc(S(=O)(=O)N2CCOCC2)s1)N1CCN(S(=O)(=O)c2cccc([N+](=O)[O-])c2)CC1	15	-1.8
CCNC(=O)COC(=O)c1cc(C)n(-c2ccccc2)c1C	23	-0.3
O=S(=O)(c1ccc(Cl)cc1)N1CCC(c2nc3ccccc3[nH]2)CC1	34	0.2
CCOC(=O)N1CCN(CC(=O)N2c3ccccc3Sc3ccccc32)CC1	12	-1.1
CCSc1nnc(NC(=O)C(Cc2ccccc2)n2cccc2)s1 (stereo not given)	1	-0.3
Cc1occc1-c1nnc(SCc2nnc(-c3ccc(Cl)cc3)o2)n1C	22	0.1
NC(=O)C1CCN(C(=O)c2ccc(-c3ccccc3)cc2)CC1	8	-0.2
CCOc1cc(/C=C2/C(=O)ON=C2C)ccc1OCc1ccc(F)cc1	-1	-3.5
O=C(c1cc(COc2ccc3ncccc3c2)on1)N1CCC(O)CC1	15	0.0
Cc1ccc(-c2nnn(CCC(=O)Nc3ccc4c(c3)OCO4)n2)cc1	5	-0.1

Source: PubChem BioAssay (several laboratories)
